MenB inh: blocks the Mycobacterium tuberculosis MenB enzyme; P9WNP5; MenB enzyme assay, absorbance read-out; some hits fall short of the stated cut; inhibition, %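 (about 12 µg/mL by stock and volumes)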; hit rate 0.43% among 100,000;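 active = mean of two replicates above 30%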;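 note: 0% = no compound and 100% = wells with inactive enzyme; the first replicate is given; strong numbers were not always called active; inactives centre near -10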
Target sequence (P9WNP5 whole entry, looked up): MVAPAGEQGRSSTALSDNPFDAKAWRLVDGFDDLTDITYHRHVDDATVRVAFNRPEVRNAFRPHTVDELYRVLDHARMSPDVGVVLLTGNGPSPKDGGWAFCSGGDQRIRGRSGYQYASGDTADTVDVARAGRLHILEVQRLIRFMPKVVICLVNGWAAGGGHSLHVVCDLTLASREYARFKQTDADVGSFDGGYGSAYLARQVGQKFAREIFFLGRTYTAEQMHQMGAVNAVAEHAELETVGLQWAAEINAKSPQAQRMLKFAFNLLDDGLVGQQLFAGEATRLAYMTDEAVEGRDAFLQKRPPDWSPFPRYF
PV pol inh: poliovirus RNA polymerase inhibition | P03300 | poliovirus polymerase elongation, fluorescence polarization; stronger effect = lower value | % elongation, % (compound at 16.7 µg/mL) | hit rate 0.66% among 150,000 | AID 588519; in the data active = % elongation below about 90%; note: some results filed as inactive read as strong as hits
Mtb MbtI inh: blocks the Mycobacterium tuberculosis siderophore enzyme MbtI | purified MbtI enzyme, fluorescence intensity read-out | inhibition, %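 (about 17 µg/mL by stock and volumes)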 | AID 493033 | P9WFX0 | hit rate 0.89% among 100,000;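 active = above 50% in both replicates, above 80% if mildly self-fluorescent; inactive = the rest, strongly fluorescent compounds included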;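 note: 0% = mean of negative and 100% = mean of positive controls; one replicate is shown; some compounds called inactive have numbers as strong as hits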
Target sequence (P9WFX0 whole entry, looked up): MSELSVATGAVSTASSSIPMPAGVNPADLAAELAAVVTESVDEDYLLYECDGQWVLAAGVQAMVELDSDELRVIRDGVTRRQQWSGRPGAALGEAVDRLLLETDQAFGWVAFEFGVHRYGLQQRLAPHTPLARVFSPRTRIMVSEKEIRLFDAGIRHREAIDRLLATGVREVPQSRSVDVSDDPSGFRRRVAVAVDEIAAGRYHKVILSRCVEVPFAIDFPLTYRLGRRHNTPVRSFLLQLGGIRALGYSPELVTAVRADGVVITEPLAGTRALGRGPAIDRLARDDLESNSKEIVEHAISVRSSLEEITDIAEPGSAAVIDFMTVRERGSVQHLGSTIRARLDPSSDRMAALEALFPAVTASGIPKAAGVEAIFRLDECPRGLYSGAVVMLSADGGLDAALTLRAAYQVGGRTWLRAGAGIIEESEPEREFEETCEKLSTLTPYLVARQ
PV pol inh intensity: second read-out of PV pol inh, no call of its own (marks repeat the call); % elongation; measured here: total intensity read-out; formula for this scale not given here;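 total fluorescence in place of polarization; lower means less elongation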
* marks the source's active call; other numbers are inactive results; i = inactive; / = not tested or not shown. This is a random part of the collection; any-hit rate near 1.7%.

Preview, twelve compounds:
SMILES | MenB inh | PV pol inh | PV pol inh intensity | Mtb MbtI inh
CNC(=O)COc1ccc(NC(=O)CCn2nc(-c3ccc(Cl)cc3)c3ccccc3c2=O)cc1 | -7 | 92 | 88 | -198
COC(=O)c1c(NC(=O)c2c(-c3ccccc3Cl)noc2C)sc2c1CCCC2 | -35 | 97 | 99 | 51
Cn1c(=O)[nH]c(=O)c2[nH]c(SCC(=O)O)nc21 | -5 | 102 | 105 | 50
CN1CC=C(Cc2n[nH]c(=O)c3ccccc23)CC1 | -16 | 101 | 100 | 13
CCn1cc(C(=O)NCc2ccc(C)cc2)c(=O)c2cc(S(=O)(=O)N(C)C)ccc21 | 0 | 101 | 104 | -4
c1ccc(-n2c(SCc3cn4ccsc4n3)nc3ccccc32)cc1 | -35 | 105 | 112 | -5
COC(=O)c1[nH]n(-c2c(C)cccc2Cl)c(=O)c1N=O | -50 | 103 | 113 | -11
CC[C@H]1CN2CCc3cc(OC)c(OC)cc3[C@@H]2C[C@@H]1CC1NCCc2cc(OC)c(OC)cc21 (some centres not stated) | -4 | 99 | 99 | -9
Cn1cc(C(=O)OCc2ccc(C#N)cc2)c2ccccc21 | -7 | 107 | 106 | -3
CC(C)C(=O)Nc1c(O)c2ccccc2[nH]c1=O | -26 | 109 | 94 | /
Cc1ccc(N=Cc2ccc[nH]2)c(Br)c1 | / | 102 | 102 | 4
Cc1cc(N2CCN(C)CC2)nc2ccc(NC(=S)N3CCC(C)CC3)cc12 | 12 | 98 | 98 | 12

The list itself, from the first entry:
SMILES | MenB inh | PV pol inh | PV pol inh intensity | Mtb MbtI inh
CNC(=O)COc1ccc(NC(=O)CCn2nc(-c3ccc(Cl)cc3)c3ccccc3c2=O)cc1 | -7 | 92 | 88 | -198
COC(=O)c1c(NC(=O)c2c(-c3ccccc3Cl)noc2C)sc2c1CCCC2 | -35 | 97 | 99 | 51
Cn1c(=O)[nH]c(=O)c2[nH]c(SCC(=O)O)nc21 | -5 | 102 | 105 | 50
CN1CC=C(Cc2n[nH]c(=O)c3ccccc23)CC1 | -16 | 101 | 100 | 13
CCn1cc(C(=O)NCc2ccc(C)cc2)c(=O)c2cc(S(=O)(=O)N(C)C)ccc21 | 0 | 101 | 104 | -4
c1ccc(-n2c(SCc3cn4ccsc4n3)nc3ccccc32)cc1 | -35 | 105 | 112 | -5
COC(=O)c1[nH]n(-c2c(C)cccc2Cl)c(=O)c1N=O | -50 | 103 | 113 | -11
CC[C@H]1CN2CCc3cc(OC)c(OC)cc3[C@@H]2C[C@@H]1CC1NCCc2cc(OC)c(OC)cc21 (some centres not stated) | -4 | 99 | 99 | -9
Cn1cc(C(=O)OCc2ccc(C#N)cc2)c2ccccc21 | -7 | 107 | 106 | -3
CC(C)C(=O)Nc1c(O)c2ccccc2[nH]c1=O | -26 | 109 | 94 | /
Cc1ccc(N=Cc2ccc[nH]2)c(Br)c1 | / | 102 | 102 | 4
Cc1cc(N2CCN(C)CC2)nc2ccc(NC(=S)N3CCC(C)CC3)cc12 | 12 | 98 | 98 | 12
Cc1ccc(N2CC(N)=C(n3cc[n+](C)c3)C2=O)cc1 | / | 102 | 105 | 1
O=c1cc(CO)oc(C(=Nc2ccc(Cl)cc2)c2ccncc2)c1O | -154 | 120 | 126 | 2
CCC(C)N1C(=O)CCC1C(=O)O (configuration not stated) | -15 | 105 | 108 | -3
CCCN(C(=O)Cc1noc2ccc(C)cc12)c1ccc(Cl)c(Cl)c1 | 3 | 101 | 100 | -18
C=CCn1c(-c2cc(OC)c(OC)c(OC)c2)nc2ccccc21 | -7 | 102 | 97 | i
Cc1onc(-c2ccccc2Cl)c1C(=O)N(CC(C)C)CC(C)C | 3 | 100 | 104 | -1
C=C1SC(Nc2cccc(Cl)c2)=NC1(C)C | -10 | 105 | 104 | 10
COc1cc2c(cc1OC)C1=C(C#N)CN(c3ccc(C)c(C)c3)CN1CC2 | -38 | 102 | 100 | -9
Cn1nc(C(F)(F)F)c2cc(C(=O)O)sc21 | 17 | 98 | 103 | -1
COc1cccc(N2CCN(C(=O)Cc3n[nH]c(=O)c4ccccc34)CC2)c1 | -18 | 95 | 140 | -4
Cc1csc2sc(C(=O)Oc3ccc(Cl)cc3)c(C)c12 | -15 | 101 | 109 | 0
CNC(=O)c1cc2c(n(-c3ccccc3)c1=O)CCCC2=O | -4 | 101 | 101 | 33
O=C(CC1CCCCC1)Nc1ccncc1 | -9 | 100 | 100 | /
O=C(NCCN1CCCC1)c1cc2ccc3cccnc3c2[nH]1 | 11 | 100 | 101 | 4
CC1CCCC(NC(=O)NC(=O)COc2ccccc2C(N)=O)C1C (configuration not stated) | -13 | 108 | 108 | -1
O=S(=O)(c1ccc(-c2cnco2)cc1)N1CCN(C2c3ccccc3-c3ccccc32)CC1 | 13 | 104 | 97 | 13
COc1ccc(NC(=O)c2ccc(NC(=O)CN(C)C3CCN(C)CC3)cc2)cc1 | 16 | 94 | 92 | -7
Cc1nn(-c2ccccc2)c(C)c1CN(C)C(=O)C1COc2ccccc2O1 (configuration not stated) | 7 | 94 | 101 | 4
Nc1ccc(-n2cnnc2)cc1 | -30 | 101 | 103 | -8
COC(=O)C(Cc1ccccc1)NC(=O)C12CC3CC(CC(C3)C1)C2 (configuration not stated) | / | 103 | 105 | -10
O=C(NCc1ccc2c(c1)OCO2)c1ccc2c(=O)n(Cc3ccccc3)c(=S)[nH]c2c1 | -11 | 104 | 106 | -7
COC(=O)c1cc(COC(=O)/C=C/c2c(C)nn(-c3ccccc3)c2C)oc1C | 9 | 105 | 100 | 18
CN(Cc1ccccc1)C(=O)CN(C)S(=O)(=O)c1ccc2[nH]c3c(c2c1)CCCC3 | -17 | 103 | 106 | 0
O=C(COC(=O)c1ccc2c(c1)OCO2)NC12CC3CC(CC(C3)C1)C2 | -27 | 105 | 105 | 16
NC(=O)C1CCCN(C(=O)Nc2cccc(C(F)(F)F)c2)C1 (configuration not stated) | -19 | 100 | 100 | -23
CCc1ccc(NC(=O)c2cc(C(C)C)on2)cc1 | -13 | 101 | 101 | 1
COc1ccc(CC(=O)Nc2cc3[nH]c(=O)[nH]c3cc2C)cc1OC | 8 | 98 | 103 | -22
CC1CCCCC1NC(=S)NN (configuration not stated) | -68 | 105 | 107 | -1
CCc1nc2cccnc2n1-c1ccc(CC(=O)N2CCN(C)CC2)cc1 | 8 | 101 | 103 | 13
CNC(=O)c1c(NC(=O)CS(=O)(=O)c2ccc(F)cc2)sc(C)c1C | -29 | 103 | 100 | -1
O=C(CCC(=O)c1ccc(Cl)s1)NC1CCCC1 | 4 | 120 | 117 | 2
Cc1ccc2nc(SCC(=O)N3CC4(C)CC3CC(C)(C)C4)[nH]c2c1 (configuration not stated) | / | 101 | 105 | -4
COc1ccc(CCC(=O)OCN2C(=O)c3ccccc3C2=O)cc1 | 0 | 105 | 110 | -7
Cn1ccnc1P(=O)(O)c1ccccc1 | -2 | 88* | 87* | 6
Cc1c(N=C=S)c(=O)n(-c2ccccc2)n1C | -8 | 101 | 105 | -5
CC(C)(C)SCCNc1nc(Oc2ccc(F)cc2)nc(Oc2ccc(F)cc2)n1 | -40 | 104 | 94 | 0
OCCSc1nc(-c2cccnc2)nc2ccccc12 | -17 | / | / | 8
CCC(C)(C)c1nnc(N)s1 | 5 | 96 | 96 | 99*

Next results follow.
SMILES | MenB inh | PV pol inh | PV pol inh intensity | Mtb MbtI inh
O=C(COC(=O)/C=C/c1ccc(F)cc1)Nc1ccc(Cl)cn1 | -23 | 99 | 98 | 10
CC(=O)Nc1cccc(NC(=O)Cn2nc(-c3ccco3)ccc2=O)c1 | -43 | 102 | 108 | 60
CC/C(Cc1ccccc1)=N\NC(=O)c1ccc(N)cc1 | 1 | 100 | 103 | -3
CNCC(O)COC1CCCCC1 (configuration not stated) | -56 | 102 | 103 | -2
O=C(Nc1ccc2ccccc2n1)C1CCN(c2nccc(C(F)(F)F)n2)CC1 | 2 | 101 | 103 | -1
O=C(O)C12CC3CCC(CC(C3)C1)C2 | -5 | 106 | 102 | -1
Cc1ccc2c(c1)c1c(n2CC(O)CN2C(=O)CNC2=O)C(=O)CCC1 (configuration not stated) | -5 | 102 | 102 | 77
O=C(CN1C(=O)CSc2ncccc21)N1CCN(c2ccccc2)CC1 | -24 | 107 | 101 | -2
CCc1ccc(CN(Cc2cn[nH]c2-c2ccc(OC)cc2)C(=O)NCc2ccc(C)cc2)cc1 | -25 | 102 | 109 | -7
CC(C)CN(CC(C)C)C(=O)CSc1nn2c(=O)c(C(C)(C)C)nnc2s1 | -16 | 107 | 109 | -7
CS(=O)(=O)N1CCN(c2cccc(C(F)(F)F)c2)CC1 | -13 | 100 | 100 | 1
COCCNC(=O)C1c2ccccc2C(=O)N2CCCCC12 (configuration not stated) | 14 | 100 | 103 | 117
COc1ccccc1N1CCN(c2ncnc3c2cnn3-c2ccc(C)c(Cl)c2)CC1 | -19 | 101 | 101 | 10
COc1ccc(CN2CCN(c3cccc(C(F)(F)F)c3)CC2)cc1C | -49 | 103 | 102 | 12
Cc1sc(N)nc1-c1cccs1 | 17 | 99 | 101 | 59
Cc1nn2c(nc(N3CCCC3)c3ccccc32)c1C=C1C(=O)N(C)C(=O)N(C)C1=O | 14 | 105 | 105 | 1
Cc1oc2c3c(ccc2c(=O)c1-c1ccc(F)cc1)OCO3 | -4 | 102 | 111 | -6
S=C1NC2(CCS1)Oc1ccccc1C1CC(c3ccccc3)=NN12 (configuration not stated) | -73 | 114 | 133 | 16
O=C1CCCC2=C1C(c1ccc3c(c1)OCO3)c1c([nH]c(=O)[nH]c1=O)N2 (configuration not stated) | 0 | 101 | 101 | -10
O=S(=O)(Nc1ccccn1)c1ccc(-n2cccn2)cc1 | 0 | 102 | 103 | i
CCOc1cc(/C=C2\SC(=O)N(Cc3ccc(F)cc3)C2=O)ccc1O | -63 | 110 | 110 | -9
CC(C)C(O)(C(=O)OC[C@@H]1CC[N+]2([O-])CCC[C@@H]12)C(C)O (some centres not stated) | -26 | 100 | 102 | 2
CCCCn1c(=O)c(C(=O)N/N=C/c2cccnc2)c(O)c2ccccc21 | -23 | 98 | 100 | 9
CC(/C=C(\C#N)S(=O)(=O)c1ccccc1)c1ccccc1 (configuration not stated) | -16 | 98 | 102 | 32
O=C(c1ccccc1)c1nccc2ccccc12 | / | 102 | 104 | -2
Cc1cc(C)cc(NC(=O)COC(=O)c2ccc(S(=O)(=O)N3CCOCC3)cc2)c1 | -8 | 103 | 108 | -14
COc1ccc(C(C(=O)NC2CCCCC2)N(CCN2CCOCC2)C(=O)Cc2c[nH]c3ccccc23)cc1OC (configuration not stated) | -10 | 103 | 103 | 1
COc1ccc2nc3oc(C(=O)NCCC4=CCCCC4)cc3cc2c1 | -3 | 102 | 104 | -82
CCOC(=O)N1CCN(C(=O)CC2c3ccccc3Oc3ccccc32)CC1 | -1 | 102 | 103 | -14
Cc1ccc2c(c1)N(CC(=O)OCC(=O)NCc1ccccc1)C(=O)CO2 | 23 | 101 | 104 | -1
CCOC(=O)CS(=O)c1nc2c(c(C(F)(F)F)n1)CCc1ccccc1-2 (configuration not stated) | -11 | 104 | 108 | 79
CCN(CC)S(=O)(=O)c1ccc(NC2c3ccccc3C(=O)N2Cc2ccco2)cc1 (configuration not stated) | 7 | 101 | 103 | 10
CC(C)NC(=O)NC1CCCCNC1=O (configuration not stated) | -7 | 107 | 107 | -10
CC(C)CC(N)C(O)C(F)(F)F (configuration not stated) | -4 | 101 | 103 | -8
CCOc1ccc(C(=O)N2CCCCCC2)cc1 | -79 | 106 | 101 | -6
C=CCOc1ccccc1CN(C(=O)c1c(C)noc1C)c1ccc2c(c1)OCCO2 | -21 | 105 | 109 | -1
CCn1c(CN2CCCCC2)nc2cc(S(=O)(=O)N(C)C)ccc21 | -6 | 102 | 102 | -2
CC(NC(=O)c1cccc(C(=O)NC(C)c2ccccc2)c1)c1ccccc1 (configuration not stated) | -19 | 102 | 106 | -7
Cc1ccc(Cn2nc(C)c3cc(C(=O)O)sc32)cc1 | 4 | 99 | 108 | -2
CCOC(=O)c1cc(C(=O)NC(C)c2ccccc2)c(C)[nH]c1=O (configuration not stated) | -15 | 105 | 107 | /
NC(=O)CCN1CCC(c2nc3ccccc3s2)CC1 | -22 | 101 | 106 | 6
COc1ccc(C2=NNC(=NC3CCCCC3)SC2)cc1 | -26 | 102 | 105 | 18
c1ccc(Cc2[nH]nc3ccccc23)cc1 | 0 | 102 | 100 | -7
CCC1Oc2ccc(C)cc2N(CC(=O)N(Cc2ccc3c(c2)OCO3)CC2CCCO2)C1=O (configuration not stated) | -44 | 107 | 100 | -7
COc1cccc(CCN2CCC(CNS(=O)(=O)c3cc(-c4cc(C)no4)ccc3OC)CC2)c1 | -22 | 104 | 103 | 13
COC(=O)c1ccc(NC(=O)c2cccc(C(=O)Nc3ccc(C(=O)OC)cc3)c2)cc1 | 1 | 98 | 100 | i
CCCSc1nc(C2CC2)nc2c1c(=O)n(C)c(=O)n2CCC | -21 | 106 | 102 | -6
CC(C)CN(CC(C)C)S(=O)(=O)c1ccc2c(c1)CCCC(=O)N2 | 14 | 100 | 98 | 10
COc1ccc(-c2noc(CN3CCC(Cc4ccccc4)CC3)n2)cc1 | -2 | 100 | 104 | -4
CCOC(=O)C1CCN(C(=O)CSC2CCCCC2)CC1 | / | 101 | 101 | -4
N#Cc1ccc(N2CCN(C(=O)C34CC5CC(CC(C5)C3)C4)CC2)c(F)c1 | -6 | 100 | 101 | -23

Source: PubChem
